Compound activity as filed in PubChem BioAssay.
Mtb MenB inh – blocks the Mycobacterium tuberculosis MenB enzyme | P9WNP5 | MenB enzyme assay, absorbance read-out; some hits fall short of the stated cut | inhibition, %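 (about 12 µg/mL by stock and volumes)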 | 100,000 compounds, 0.43% hits | AID 540299;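 active = mean of two replicates above 30%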;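 also: 0% = no compound and 100% = wells with inactive enzyme; the first replicate is given; strong numbers were not always called active; inactives centre near -10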
Target sequence (P9WNP5 whole entry, looked up): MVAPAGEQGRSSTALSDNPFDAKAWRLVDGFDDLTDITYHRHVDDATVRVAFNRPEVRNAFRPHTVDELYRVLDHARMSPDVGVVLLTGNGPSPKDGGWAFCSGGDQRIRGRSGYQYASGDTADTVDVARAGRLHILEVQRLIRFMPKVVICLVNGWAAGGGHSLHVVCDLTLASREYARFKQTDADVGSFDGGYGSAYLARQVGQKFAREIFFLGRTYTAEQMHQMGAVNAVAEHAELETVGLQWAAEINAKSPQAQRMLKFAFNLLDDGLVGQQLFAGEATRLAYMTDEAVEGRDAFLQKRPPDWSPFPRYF
PV pol inh – poliovirus RNA polymerase inhibition. poliovirus polymerase elongation, fluorescence polarization; active compounds read low. % elongation, % (compound at 16.7 µg/mL). 150,000 compounds, 0.66% hits. AID 588519; in the data active = % elongation below about 90%; also: some results filed as inactive read as strong as hits
Target sequence (P03300 1749-2209 limits assumed): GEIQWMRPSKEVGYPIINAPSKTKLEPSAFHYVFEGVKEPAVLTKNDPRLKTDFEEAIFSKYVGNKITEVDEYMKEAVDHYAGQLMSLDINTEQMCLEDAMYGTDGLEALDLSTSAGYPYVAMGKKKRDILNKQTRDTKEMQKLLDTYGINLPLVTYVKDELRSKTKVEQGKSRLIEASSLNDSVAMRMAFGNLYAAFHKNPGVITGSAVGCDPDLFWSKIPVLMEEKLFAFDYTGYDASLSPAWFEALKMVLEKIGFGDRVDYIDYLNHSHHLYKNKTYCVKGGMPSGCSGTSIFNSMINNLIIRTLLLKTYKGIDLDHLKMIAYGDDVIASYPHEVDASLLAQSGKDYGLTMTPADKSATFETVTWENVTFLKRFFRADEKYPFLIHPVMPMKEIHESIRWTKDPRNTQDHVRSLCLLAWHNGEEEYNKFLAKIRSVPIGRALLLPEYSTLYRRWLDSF
Mtb MbtI inh – MbtI salicylate synthase inhibition; P9WFX0; purified MbtI enzyme, fluorescence intensity read-out; inhibition, %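 (about 17 µg/mL by stock and volumes)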; 100,000 compounds, 0.89% hits; AID 493033;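 active = above 50% in both replicates, above 80% if mildly self-fluorescent; inactive = the rest, strongly fluorescent compounds included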;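 also: 0% = mean of negative and 100% = mean of positive controls; one replicate is shown; some compounds called inactive have numbers as strong as hits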
PV pol inh intensity – recorded beside PV pol inh, whose call it bears; % elongation; measured here: total intensity read-out; formula for this scale not given here;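 total fluorescence in place of polarization; lower means less elongation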
* marks the source's active call; other numbers are inactive results; i = inactive; . = no result given; & = joins results of further samples. Not a hit list (roughly 1.9% active in at least one column).

SMILES	Mtb MenB inh	PV pol inh	PV pol inh intensity	Mtb MbtI inh
CSc1ncccc1C1=N/C(=C\N(C)C)C(=O)O1	6	101	104	-5
O=S(=O)(NN1CCOCC1)c1cccc2nonc12	15	101	103	12
Cc1n[nH]c(C)c1S(=O)(=O)Nc1ccc(Br)cc1F	-31	111	115	-10
COc1ccc(C(=O)CC2(O)C(=O)N(CN3CCOCC3)c3ccc(Br)cc32)cc1 (stereo not given)	-3	111	118	-12
Cn1c(=O)cc(N)n(Cc2ccccc2)c1=O	-15	104	114	9
CCn1cc(CCCC(=O)O)c2ccccc21	-23	103	107	109
CSc1nn(-c2ccccc2)cc1-c1nc(C(C)(C)C)cs1	-36	101	99	104
CCOC(=O)c1cc(-c2ccc(C)cc2)n(CC(=O)NCC2CCCO2)c1C (stereo not given)	-6	103	102	-4
O=C(c1ccco1)N(Cc1ccccc1)Cc1cn(-c2ccccc2)nc1-c1cccs1	-18	100	103	9
CCN(CC)S(=O)(=O)c1ccc(NCCc2ccccn2)nc1	-7	101	109	13
CCOC(=O)N1CCN(C(=S)NC(=O)c2cc(Br)ccc2Cl)CC1	0	100	103	4
N#Cc1ccc(Cn2cc(Br)ccc2=O)cc1	-11	102	104	13

One compound at a time (already shown). Values in the order: Mtb MenB inh, PV pol inh, PV pol inh intensity, Mtb MbtI inh
`O=S(=O)(NN1CCOCC1)c1cccc2nonc12` as listed: 15, 101, 103, 12
`Cc1n[nH]c(C)c1S(=O)(=O)Nc1ccc(Br)cc1F` as listed: -31, 111, 115, -10
`CCN(CC)S(=O)(=O)c1ccc(NCCc2ccccn2)nc1` as listed: -7, 101, 109, 13
`CCn1cc(CCCC(=O)O)c2ccccc21` as listed: -23, 103, 107, 109

Continued:
SMILES	Mtb MenB inh	PV pol inh	PV pol inh intensity	Mtb MbtI inh
CN(C)S(=O)(=O)c1cccc(COC(=O)CN2CCCCCC2=O)c1	-2	102	103	13
CCN(CC)C(=O)c1cnn(-c2ccccc2)c1NC(=O)c1ccco1	3	104	105	.
O=C(NCc1noc2ccccc12)Nc1nc2ccccc2s1	1	102	101	-12
O=c1cccc2n1CC1CC2CN(C(c2ccccc2)c2sc3ncnn3c2O)C1 (stereo not given)	4	99	105	25
N#C/C(C(=O)NCc1ccco1)=c1/s/c(=C/c2ccncc2)c(=O)n1-c1ccccc1	0	.	.	9
COc1ccc(Oc2ncccc2NC(=O)c2ccc(OC)cc2)cc1	5	108	113	-8
Cc1cc(=O)[nH]c(SCC(=O)N2CCCCC2)n1	-13	101	98	-7
CCc1noc(C)c1C(=O)N1CCN(S(=O)(=O)c2ccccc2)CC1	0	100	106	-21
O=C(/C=C/c1ccco1)Nc1cccc(NC(=O)/C=C/c2ccco2)n1	4	95	104	.
CC(C)C(C)(C#N)NC(=O)CSc1nnc2ccccn12 (stereo not given)	-24	109	107	i
CCN(CC)c1ccc(/C=N/N2CCN(Cc3ccc(Cl)cc3)CC2)c(O)c1	-25	101	104	-5
CCOC(=O)c1sc2nc(SCC(=O)C(C)(C)C)n(Cc3ccccc3Cl)c(=O)c2c1C	1	103	103	2
CN(C)c1ccc(/C=C/C=C2/SC(=O)N(CC(=O)N3CCCC3)C2=O)cc1	-35	116	143	-1
Cn1c(=O)c2[nH]c(SCc3ccc(Cl)c(Cl)c3)nc2n(C)c1=O	-25	105	109	2
CCC(C)c1ccc(C2=Nn3c(nnc3C(C)C)SC2)cc1 (stereo not given)	-18	74*	79*	51
CN(CCO)c1ccc(C(F)(F)F)cn1	-22	106	102	-55
CC(=NCc1ccccn1)c1c(O)c2ccccc2n(-c2ccccc2)c1=O	-41	104	111	.
Cc1c(C(=O)OCC(=O)Nc2ccc(SC(F)F)cc2)oc2ccc(Br)cc12	3	100	97	4
CCn1c(SCC(=O)OCC(=O)N2c3ccccc3NC(=O)C2(C)C)nnc1-c1ccco1	-7	103	102	17
CCSc1ccc2c(c1)N(CCCN1CCN(C)CC1)c1ccccc1S2	4	100	102	-4
CCOC(=O)c1[nH]c2c(c1C)C(=O)CCC2	-30	101	110	-15
O=C(CSc1nnc(NC2CC2)s1)c1ccc2c(c1)OCO2	2	103	102	32
NC(=O)c1cc(-c2ccccc2)nc2ccccc12	-16	102	94	102
O=C(COC(=O)CC1CCCC1)Nc1nnc(-c2ccccc2)o1	3	107	110	-4

Rewritten with each value named: 2 of the compounds above
> CCSc1ccc2c(c1)N(CCCN1CCN(C)CC1)c1ccccc1S2
  Mtb MenB inh = 4	PV pol inh = 100	PV pol inh intensity = 102	Mtb MbtI inh = -4

> CCOC(=O)c1[nH]c2c(c1C)C(=O)CCC2
  Mtb MenB inh = -30	PV pol inh = 101	PV pol inh intensity = 110	Mtb MbtI inh = -15

(further entries)
SMILES	Mtb MenB inh	PV pol inh	PV pol inh intensity	Mtb MbtI inh
CC1=NN(c2ccc(S(N)(=O)=O)cc2)C(=O)C1	-31	103	101	-8
CN1CCN(NC(=S)N=P(c2ccccc2)(N2CCOCC2)C(C)(C)C)CC1 (stereo not given)	4	105	107	15
O=C(Nc1cccnc1)c1cccnc1C(=O)O	9	100	102	3
CS(=O)(=O)C1=NN2C(=N)/C(=C\c3ccc(-c4ccc(Cl)cc4)o3)C(=O)N=C2S1	-53	100	106	10
COc1cccc(C(=O)OCc2ccccc2C(F)(F)F)c1O	-20	101	109	-1
CCN(CC)C(=O)Cc1cccs1	-11	105	110	.
CN1C(=O)c2ccccc2C(C(=O)N2CCCCCC2)C1c1cccs1 (stereo not given)	-24	102	102	-7
CCc1nc2ccccc2n1C(=O)CCC(=O)O	5	97	92	.
CCOC(=O)CS(=O)(=O)c1ccc(C(F)(F)F)cn1	-2	103	104	2
O=C(CCSCc1ccc(Cl)cc1)Nc1cccnc1	.	102	103	-2
CCc1ccc(NC(=O)CSc2ccccn2)cc1	28	100	101	26
COc1ccc(C)cc1NC(=O)Cc1cn(C)c2ccccc12	-22	102	98	2
Cc1nc2c(c(C)c1CCC(=O)NCCOc1cccc(C(F)(F)F)c1)c(=O)n(C)c(=O)n2C	-22	101	104	-7
CCn1c2ccccc2c2cc(NS(=O)(=O)c3ccccc3)ccc21	-8	104	107	-2
O=C(NC(NCc1ccco1)(C(F)(F)F)C(F)(F)F)c1cccnc1	19	100	103	-4
CCC(=O)Nc1ccc2c(c1)N(C(C)=O)c1ccccc1CC2	6	99	101	-16
O=C(O)c1c2c(nc3ccccc13)C(=O)N(C1CCCCC1)C2	0	99	102	1
Cc1ccc(NC2=NCCC2)cc1	-53	105	110	2
Cc1cc(C)c(S(=O)(=O)N2CCCc3ccccc32)c(C)c1	-6	110	114	.
Cc1cc(C(=O)NCC(=O)O)c(C)o1	10	100	102	1
CCCCn1c(CCNC(=O)c2ccc(Cl)cc2)nc2ccccc21	-19	98	97	8
CCOC(=O)N1CCC(NC(=O)C(C)n2nc(C)c3sc4ccccc4c3c2=O)CC1 (stereo not given)	2	102	103	8
Cc1cc(NC(=O)C(C)c2c(C)n[nH]c2C)no1 (stereo not given)	2	100	104	-13
O=C(c1ccc(-c2ccccc2F)o1)N(CC1CCCO1)C1CCS(=O)(=O)C1 (stereo not given)	-10	103	111	15
CC(O)c1cccc(Nc2ncnc3c2cnn3C)c1 (stereo not given)	7	100	101	17
O=C(O)c1ccc2nc[nH]c2c1	-16	.	.	17
Cn1ccnc1SCC(=O)Nc1nncs1	-8	100	104	-20
O=C(/C=C/c1ccccc1Cl)Nn1cnc2ccccc2c1=O	-6	100	105	-1
Cc1ccc(C)c(NC(=O)c2cccc(S(=O)(=O)N3CCCC3)c2)c1	-4	104	104	12
Nc1cccc2c(S(=O)(=O)NC3CCCCC3)cccc12	2	96	98	4
Cc1ccc(C)c(NC(CC(=O)c2ccccc2)C(=O)O)c1 (stereo not given)	20	103	110	-11
Cc1cc(C)c(C#N)c(=S)[nH]1	-19	101	101	90*
Cc1ccc(C=Nc2c(F)cccc2F)o1	.	105	103	3
CC(C)OC(=O)/C(C#N)=C/c1c[nH]c2ccccc12	-108	103	104	2
CCOC(=O)c1cncc(C#CCOC(=O)Nc2ccc(OC(F)(F)F)cc2)c1	9	101	105	-1
CCCCNC(=O)Nc1ccc(C2SCCS2)cc1	4	101	104	-6
CCc1nnc(NC(=O)CSC2=NC(=O)C(NC(C)=O)C(=O)N2)s1 (stereo not given)	-11	100	98	-24
COc1cccc(/C=C2/Sc3ccc(C(=O)NCc4ccco4)cc3NC2=O)c1	-1	106	117	-15
CCc1ccccc1Nc1cc(C(=O)NCCN2CCCCCC2)c2ccccc2n1	-8	103	107	10
CCn1c(=N)n(CC(O)COc2ccccc2)c2ccccc21 (stereo not given)	-10	106&99	106&102	-2
Cc1ccccc1C(=O)N1CCc2c([nH]c3ccccc23)C1C(F)(F)F (stereo not given)	-13	107	117	-8
C[C@@H](c1ccccc1)N1C(=O)CC[C@H]2CC(=O)CC[C@@H]21	10	102	105	-6
O=C(Nc1cc(=O)[nH]c(=O)[nH]1)C(c1ccccc1)c1ccccc1	-22	107	96	-4
CN1/C(=C\C(=O)c2cccnc2)C(C)(C)c2ccccc21	-121	107	111	-4
CN(C1CCCCC1)S(=O)(=O)c1ccc(C(=O)Nc2ccc3c(c2)C(=O)NC3=O)cc1	-59	102	103	2
O=c1[nH]c2cc3c(cc2cc1CN(Cc1ccco1)S(=O)(=O)c1cccc(C(F)(F)F)c1)OCO3	-2	102	103	-35
CCc1ccc(C(=O)COC(=O)c2cccc(-n3cccc3)c2)s1	2	102	98	30
CC(C)(C)C(=O)Nc1cccc(C(=O)O)c1	-9	101	101	-15
CC1=CCC(COC(=O)Nc2ccccc2)CC1 (stereo not given)	-32	103	105	-3
N#Cc1c(-c2ccco2)cc(-c2ccccc2)nc1SCc1nc2ccccc2[nH]1	-5	103	121	.
CN(Cc1ccccc1)C(=O)CSc1nc(NCc2ccc(Cl)cc2)c2ccccc2n1	-4	102	105	6
COc1ccc(CCN2COc3ccc4c5c(oc4c3C2)C(=O)c2ccccc2C5=O)cc1OC	-13	98	102	2
OC(CSc1ccc(F)cc1)CN1CCN(c2ccc(C(F)(F)F)cn2)CC1 (stereo not given)	-2	99	101	-11
C=CCOc1cccc(C(=O)NCc2ccccc2)c1	6	101	101	3
Cn1c(=O)c2nc(-c3ccccc3I)oc2c2ccccc21	-4	101	99	37
CCOc1cc2c(cc1OCC)-n1cccc1C(c1c(O)cccc1OC)NC2 (stereo not given)	-5	106	101	.
O=C(NCC(c1ccco1)N1CCc2ccccc21)c1ccccc1 (stereo not given)	-11	103	110	-2
CC(C)(C)C(=O)OCC1OC(n2cnc(C(N)=O)n2)C(O)C1O (stereo not given)	-12	100	102	2
CN(C(=O)c1cc2nc(-c3ccco3)cc(C(F)(F)F)n2n1)C1CCCCC1	-33	100	100	2
O=C(Cn1ncc2ccsc2c1=O)N1CCN(c2cccc(Cl)c2)CC1	-17	103	102	-5

Other results.
SMILES	Mtb MenB inh	PV pol inh	PV pol inh intensity	Mtb MbtI inh
O=S(=O)(c1ccc(-c2cc(C(F)(F)F)no2)s1)N1CCCc2ccccc21	4	102	103	-3
CC(Nc1n[nH]c(=O)[nH]c1=O)C(=O)N/N=C/c1ccccc1 (stereo not given)	-3	100	99	11
O=C(COC(=O)c1ccc(Br)o1)Nc1cccc2ccccc12	.	102	104	-6
CC(C)c1ccc(NCc2nc(-c3ccc(Cl)cc3Cl)no2)cc1	-22	102	103	-10
Cc1cc(N/C=C(\C#N)C(=O)c2cccs2)no1	5	103	98	26
Nc1nc2ccccc2n1CCOc1ccc(Br)cc1	-18	102	105	-1
COc1ccc(CNC(=O)C2CCN(S(=O)(=O)c3cnc[nH]3)CC2)cc1	7	102	105	-1
COC(=O)c1ccc(NC(=O)CSc2nc3cc4c(cc3cc2C#N)OCCO4)cc1	-34	103	111	-2
O=C(Cn1cnc2ccccc2c1=O)OCc1ccccc1	-14	122	126	.
